Bioassay records from PubChem BioAssay.
ClpP mod – qHTS Assay for Activators of ClpP | ATP-dependent Clp protease proteolytic subunit (Bacillus subtilis (strain 168)), P80244 | purified B. subtilis ClpP, FRET peptide cleavage, 20 min | Potency, µM (top dose mostly 57.5 µM), for inactives: at the top dose activity change, negative = active | 340,000 tested, 1.9% active; active = well fitted falling curve with a large enough effect; inconclusive = small, poorly fitted or top-dose-only effect; inactive = no such curve, though single readings can be large or run the other way; also: potency is read from the fitted curve at half-maximal effect; the source files actives as falling curves though it sought activators and does not explain the sign; nearly all actives have a fitted effect of over 65% in size; many hits overshoot -100%
Target sequence (P80244 whole entry, looked up): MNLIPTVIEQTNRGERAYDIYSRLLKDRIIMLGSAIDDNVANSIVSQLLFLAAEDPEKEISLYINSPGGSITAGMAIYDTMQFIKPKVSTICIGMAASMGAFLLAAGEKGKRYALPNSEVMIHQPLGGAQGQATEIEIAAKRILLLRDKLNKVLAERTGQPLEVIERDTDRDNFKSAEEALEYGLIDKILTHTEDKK
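ClpP 10 microg/mL final, pH 8 Tris/KCl buffer with BSA, glycerol, Tween-20; compound pinned in; FRET-FV substrate; RT 20 min; Ex320/Em430; ΔFRET vs ADEP 5.8 microM, DMSO, no enzyme.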
TRPML1 agonist – agonists of human TRPML1 channel; activation, % (concentration not given with the values); TRPML1-expressing cells, Ca2+ dye fluorescence, FDSS; host cell line not named in the record; reference of the full effect not given here; 410,000 tested, 0.12% active; in the data active = activation above about 50%; inconclusive = about 30% to 50%; inactive = below about 30%; also: 0% is about no effect; the text of the record puts the active cut at 80%
Target sequence (Q9GZU1 whole entry, looked up): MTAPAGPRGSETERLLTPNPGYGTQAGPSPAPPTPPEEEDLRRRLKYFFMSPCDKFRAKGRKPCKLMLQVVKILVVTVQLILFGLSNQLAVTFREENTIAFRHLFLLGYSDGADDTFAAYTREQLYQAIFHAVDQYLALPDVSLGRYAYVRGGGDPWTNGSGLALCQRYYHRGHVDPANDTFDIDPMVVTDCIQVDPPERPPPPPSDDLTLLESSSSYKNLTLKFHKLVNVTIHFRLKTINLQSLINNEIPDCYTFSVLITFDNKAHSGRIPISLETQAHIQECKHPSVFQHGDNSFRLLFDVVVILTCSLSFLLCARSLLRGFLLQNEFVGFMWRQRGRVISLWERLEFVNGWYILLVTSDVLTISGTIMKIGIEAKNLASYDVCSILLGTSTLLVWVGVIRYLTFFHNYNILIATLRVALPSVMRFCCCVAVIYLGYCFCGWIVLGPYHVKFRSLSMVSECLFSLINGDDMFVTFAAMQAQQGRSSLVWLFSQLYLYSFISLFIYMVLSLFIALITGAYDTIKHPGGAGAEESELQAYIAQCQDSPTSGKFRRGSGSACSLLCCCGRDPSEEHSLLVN
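Kinetic FDSS Ca2+ read in Tet-induced TRPML1-DL cells (ABD Ca8 dye plus quencher, 45-90 min RT loading): baseline, then compound, then 110 s agonist window; EC80 agonist 54-4 at 4uM final added afterwards for a 110 s antagonist window.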
gsp antagonist – antagonizes gsp, the McCune-Albright syndrome mutation; gsp-mutant cells, cAMP HTRF, 30 min; control for the full effect not named in the record; Potency, µM (series often up to 76.9 µM), for inactives: at the highest dose activity change, negative = inhibition, actives largely listed as inhibitors; 340,000 tested, 0.4% active; AID 624288; active = falling curve of any shape with a large fitted effect; inconclusive = falling curve, mostly with a smaller effect; inactive = flat or rising curve; cell line not stated here;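 also: intracellular cAMP measured with PDE inhibitor Ro 20-1724 present during compound exposure; potency is read from the fitted curve at half-maximal effect; % is scaled to controls: 0 for no effect and ±100 for the full control effect; nearly all actives have a fitted effect of over 65% in size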
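G418-selected cells were plated in DMEM/10% FBS for 16-24 h at 37C, then treated with compounds plus the PDE inhibitor […] (300 uM solution added) for 30 min at 37C. Intracellular cAMP was measured by HTRF after 30 min lysis at room temperature.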
TRPML1 inh – blocks the human TRPML1 channel | activity change, negative = inhibition, % (concentration not given with the values) | 390,000 tested, 0.02% active | Q9GZU1 | AID 624415 | TRPML1-inducible cells, Ca2+ dye fluorescence, FDSS; stronger effect = lower value; inhibition of EC80 agonist-evoked calcium signal; in the data active means activity change below about -50%; inconclusive means about -30% to -50%; inactive means above about -30%;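 also: stimulus is agonist 54-4 at its EC80 concentration; % is scaled to controls: 0 for no effect and ±100 for the full control effect; compound concentration not given in the record; the text of the record puts the active cut at -80%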
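Calcium fluorescence in TRPML1-DL cells induced overnight with Tet: a 110 s read after compound pin addition, then a 110 s antagonist read after challenge with 54-4 at 4 uM final (EC80).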
gsp ag – agonists of gsp mutant (McCune-Albright syndrome); gsp mutant cells, cAMP HTRF, 30 min; control for the full effect not named in the record; Potency, µM (highest dose often 76.9 µM), for inactives: top-dose activation (cAMP increase), actives largely listed as activators; 340,000 tested, 0.13% active; AID 624287; active = well fitted activation curve with a large enough effect; inconclusive = small, poorly fitted or top-dose-only effect, or another doubt; inactive = no such curve, though single readings can be large or run the other way; cell line not stated here;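 also: phosphodiesterase inhibitor Ro 20-1724 added with compounds to block cAMP breakdown; potency is read from the fitted curve at half-maximal effect; nearly all actives have a fitted effect of over 60% in size; about a fifth of the inactives were tested at one dose only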
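Cells stably selected in G418 were plated at 2000/well, grown 16-24 hr, then given compounds in DMSO with the PDE inhibitor […] (300 uM solution added) for 30 min at 37C; cAMP was read by HTRF.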
Menin-MLL FL inh – inhibitors of human menin-MLL interaction, wild-type MLL peptide. Fluorescence polarization, fluorescein-MLL peptide displacement from menin. FP activity change, % at 61.4 µM. 290,000 tested, under 10 active. AID 1766; inconclusive = falling polarisation curve, or a change in total fluorescence; inactive = total fluorescence flat and polarisation flat or rising; no compound was filed as active; the % refers to the polarisation; negative = inhibition;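 also: % of control where 0% means no effect; inhibitors lower the polarisation; unlabelled MLL peptide was the positive control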
Numbers without * were called inactive; ? = inconclusive; · = not tested or not shown; & = joins results of further samples; [ ] = dose if it differs, or a comment.

SMILES	ClpP mod	TRPML1 agonist	gsp antagonist	TRPML1 inh	gsp ag	Menin-MLL FL inh
O=C(OCC(=O)N1CCCc2ccccc21)c1ccc(Br)o1	-3.7%	-0.6	5%	-5	1%	0.3
CCC(/C=C1\Oc2ccc(OC)cc2N1C)=C\c1sc2ccccc2[n+]1CCCS(=O)(=O)[O-]	·	-0.1	-1%	14	?	·
O=C1NN(c2ccccc2)C(=O)/C1=C/c1ccc(-c2ccc(C(=O)O)cc2)o1	-19%	0.1	-12%	-8	-16%	22
O=C(O)CCCCCCCCc1cn(Cc2ccc(C(=O)c3ccccc3)cc2)nn1	-2.1%&2.2%	0.1&-0.9	-3%	-3	·	-3.9
CC(=O)c1cccc(NC(=O)CCc2nnc3ccc(N4CCN(C)CC4)nn23)c1	-3.8%	4.5	-4%	22	?	2.1
O=C(c1cccc([N+](=O)[O-])c1)N1CCCN(C(=O)c2cccc([N+](=O)[O-])c2)CC1	0.1%	-0.8	27%	-10	74%[15.4 µM]	2.0
COc1ccc(Cc2nnc(SCC(=O)NC(C)c3ccccc3)o2)cc1 (centres undefined)	0.9%	-0.4	2%	-6	-50%[inhibitor]	3.9
CCOC(=O)[C@H]1[C@H]2COc3ccc(Cl)cc3[C@@H]2N2C(=O)CN(Cc3ccc(OC)cc3)C(=O)[C@@]12C	0.0%	-0.3	-15%	-7	-15%	·
O=C(NN=C1C2CC3CC(C2)CC1C3)c1cccs1	0.7%	-0.6	8%	-8	12%	0.7
COc1ccc(C(=O)NCC(c2ccc3c(c2)OCO3)N2CCN(C)CC2)cc1OC (centres undefined)	0.5%	0.0	·	50	·	·
Cc1cc(NS(=O)(=O)c2ccc(NC(=O)CCCOc3ccccc3C)cc2)no1	·	-1.0	-6%	27	-7%[15.4 µM]	·
CCOc1ccc(OCCC(=O)OCC(=O)c2c(N)n(C)c(=O)n(C)c2=O)cc1	0.8%	-0.6	4%	38	13%[15.4 µM]	·
CCOC(=O)NC(Nc1sc2c(c1C(=O)OC)CCN(C)C2)(C(F)(F)F)C(F)(F)F	?	0.2	5%	7	3%	-1.5
CCOc1ccc(NC(=O)N2CCCC2C(=O)NCc2ccco2)cc1 (centres undefined)	·	0.9	-1%	-4	5%[15.4 µM]	-1.1
C=C(C)C(=O)Nc1cccc(C2=NOC3(C2)C[C@@H](C(N)=O)N(C(=O)[C@H]2CCC(=O)N2)C3)c1 (some centres undefined)	-0.9%	-0.8	13%	-7	·	2.6
Cc1ccc(C2(C)NC(=O)N(CC(=O)NNC(=O)c3ccoc3C)C2=O)cc1 (centres undefined)	0.0%	0.2	2%	-12	10%[15.4 µM]	·
Cc1ccc(NNC(=O)c2c(F)cccc2Cl)cc1C	·	1.3	1%	-4	?	3.8
COc1ccc(C(=O)C2CCCN(C(=O)c3cccc(Cl)c3F)C2)cc1OC (centres undefined)	-4.1%	-1.0	-3%	14	?	·
COc1ccc(-c2coc3cc4oc(=O)c5ccccc5c4cc23)cc1F	?	0.5	-5%	33	-13%	2.4
O=C(Cn1cc(S(=O)(=O)Cc2cccc(Cl)c2)c2ccccc21)NCCc1ccccc1	-0.8%	0.4	·	-2	·	·
Nc1nonc1-n1nnc(C(=O)O)c1-c1cccs1	-8.3%	0.2	6%	12	11%	0.4
COc1ccc(S(=O)(=O)N(C)c2ccc(C(=O)N3CCOCC3)cc2)cc1	2.2µM*	-0.8	7%	-4	?	2.4
COc1ccccc1/C=C1/SC(=O)N(CCC(=O)Nc2ccc(S(=O)(=O)Nc3nccs3)cc2)C1=O	-1.8%	-0.6	0%	31	-4%	1.9
C=C(C)CNC(=O)c1ccc(OC2CCN(C(=O)COC)CC2)cc1	-1.5%	1.0	-4%	-2	-173%[inhibitor]	·
O=C(NCCNc1nccc(C(F)(F)F)n1)c1cccs1	-8.2%	0.9	-3%	-10	1%	1.4
CCOC(=O)C[C@H]1c2ccccc2S(=O)(=O)N1c1cccc(OC)c1	-12%&-14%	-1.2&-1.1	-8%	-1	35%	·
Cc1cc(Cl)n2c(nc3ccccc32)c1C#N	-4.0%	4.3	-2%	23	4%[15.4 µM]	3.8
Cc1nc2c(C(=O)NC(C)c3ccccc3)cnn2c(C)c1Cc1ccccc1 (centres undefined)	32µM*	3.8	·	31	·	·
c1ccc2[nH]c(-c3nc4ccccc4[nH]3)nc2c1	7.1µM*	-0.5	-2%	7	5%	3.6
O=C(COC(=O)c1ccc2c(c1)OCCO2)Nc1ccc(F)cc1	-15%	-0.2	6%	-22	-11%[15.4 µM]	·
COc1cc(C)c(Br)cc1S(=O)(=O)NCc1ccccc1	-1.6%	0.6	4%	-8	?	1.2
Cc1ccsc1/C=N/NC(=O)c1nnn(-c2nonc2N)c1-c1ccc2c(c1)OCO2	-5.4%	0.0	?	13	-33%[inhibitor]	·
CCOc1ccc(C(=O)Nc2ccc(-c3nc4cc(CC)ccc4o3)cc2)cc1	-6.9%	1.6	·	9	·	·
O=C(NNC(=O)c1cc(-c2ccc(Cl)c(Cl)c2)nc2ccccc12)Nc1ccccc1	2.5%	1.6	?	-4	-2%	1.3
CC(C)(C)c1ccc(C(=O)NC2CCN(Cc3ccccc3)CC2)cc1	-3.0%	1.1	-1%	28	23%	2.4
CCOc1cccc(-c2cc(C(=O)N3N=C(C)CC3(O)C(F)F)c3ccccc3n2)c1 (centres undefined)	·	-0.9	-16%	-18	-9%[15.4 µM]	-4.5
COC(=O)c1ccccc1NC(=O)CCS(=O)(=O)c1ccc(Br)s1	?	2.1	-4%	-21	-33%[inhibitor]	5.3
CCCCC1=CC2=C(c3ccco3)C(=O)C(C)(OC(=O)c3ccc(OC)cc3)C(=O)C2=CN1Cc1ccco1 (centres undefined)	2.7%	3.1	10%	-2	?	?
O=S(=O)(c1ccc(NCc2ccc(F)cc2)nc1)N1CCCC1	·	-0.5	-21%	4	8%[15.4 µM]	6.5
O=C(Nc1ccc(N2CCOCC2)c(Cl)c1)c1cc2ccccc2o1	-0.9%	0.7	-22%	-3	-12%	2.2
O=C(Nc1cccnc1)C(Cc1ccccc1)n1cccc1 (centres undefined)	-3.0%	-0.1	3%	40	-287%[inhibitor]	5.4
O=C(Nc1ccc(Cl)c(Cl)c1)c1ccncc1	-1.2%	1.4	-11%	4	12%	0.8
O=C(N/N=C/c1ccc(F)cc1)c1ccncc1	-2.4%	-0.4	-19%	8	-5%[15.4 µM]	-0.1
Cc1cc(S(=O)(=O)Nc2ccc(C(=O)N3CCN(c4ccccc4O)CC3)cc2)ccc1F	-1.4%	0.3	-21%	-11	-43%[inhibitor]	0.1
COc1ccc(N(CC(=O)Nc2ccc(C)c(C)c2)S(=O)(=O)c2c(C)noc2C)cc1	2.9%	1.9	-24%	-6	0%	·
CN(C)S(=O)(=O)n1cc(/C=C(\NC(=O)c2ccccc2Cl)C(=O)NCCN2CCOCC2)c2ccccc21	-0.4%	-0.6	-10%	-12	-10%	1.1
CSc1ccc(CN2CCN(S(=O)(=O)Cc3ccccc3)CC2)cc1	-1.7%	2.1	-11%	-9	-18%	·
COc1ccc(N(CC(=O)NN=C2CCCC2)S(=O)(=O)c2ccccc2)cc1	1.3%	-0.3	3%	-12	?	-3.7
CN(CC(=O)Nc1ccc(F)c(F)c1)S(=O)(=O)c1cccc2nsnc12	-7.5%	0.5	-11%	-12	-5%	3.4
NC(=O)CSc1nnc(Cc2ccc3c(c2)OCO3)n1C1CCCCC1	-2.6%	1.5	-2%	-10	17%	2.1
FCCCOc1ccc(-c2nccc(-c3ccc(Cl)cc3)n2)cc1	-8.0%	1.7	22%	17	40%	-2.0
CC1(C)C(=O)NCCN1C(=O)CCC(=O)O	-2.1%	0.1	10%	2	5%	2.2
COc1cc(OC)cc(-c2nc(-c3cccc(C)c3)no2)c1	-13%	-0.1	·	-10	·	·
COc1cc(OC)cc(C(=O)Oc2c(CN3CCOCC3)cc(Cl)c3cccnc23)c1	·	0.2	-1%	1	-11%[15.4 µM]	0.6
Cc1ncsc1C(=O)NCc1ccc(N2CCCC2=O)cc1	-2.0%	0.5	-10%	2	-42%[inhibitor]	5.3
CCCc1nc(-c2cc3ccccc3[nH]c2=O)no1	·	-0.7	6%	-11	16%	-0.5
CC(C)(NC(=O)N1CCCC1)c1cccc(C(C)(C)NC(=O)N2CCCC2)c1	-2.4%	-0.5	1%	0	?	1.4
COC(=O)COc1ccc(NC(=O)C2CCCO2)cc1 (centres undefined)	-0.9%	0.7	-3%	25	-53%[inhibitor]	2.0
COc1ccc(Cl)cc1NC(=O)c1nc2nc(C)cc(C(F)F)n2n1	-4.8%	-0.3	9%	-8	-26%	-0.6
COc1cccc(C(=O)N2CCc3c([nH]c4ccccc34)C2c2ccc(SC)cc2)c1 (centres undefined)	-1.7%	0.3	·	-23	·	·

Record cards, from the list above. Values in the order: ClpP mod | TRPML1 agonist | gsp antagonist | TRPML1 inh | gsp ag | Menin-MLL FL inh
COc1cc(OC)cc(-c2nc(-c3cccc(C)c3)no2)c1 is listed with -13% | -0.1 | · | -10 | · | ·
NC(=O)CSc1nnc(Cc2ccc3c(c2)OCO3)n1C1CCCCC1 is listed with -2.6% | 1.5 | -2% | -10 | 17% | 2.1
COc1ccc(Cl)cc1NC(=O)c1nc2nc(C)cc(C(F)F)n2n1 is listed with -4.8% | -0.3 | 9% | -8 | -26% | -0.6

(cont.)
SMILES	ClpP mod	TRPML1 agonist	gsp antagonist	TRPML1 inh	gsp ag	Menin-MLL FL inh
COc1cc(NC(=O)c2cccs2)c(OC)cc1NC(=O)CCC(=O)Nc1ccc(C)cc1	·	1.0	4%	37	-10%[15.4 µM]	3.4
O=C(Nc1ccccc1)c1cccc(N2C(=O)C3C4CC(C(Br)C4Br)C3C2=O)c1 (centres undefined)	-1.8%	1.7	-14%	-14	-31%[inhibitor]	0.0
CCOC(=O)N1CCc2c(sc(NCc3ccc(N(C)C)cc3)c2C(=O)Nc2ccccc2OCC)C1	2.8%	-0.9	·	-2	·	·
COc1ccc(S(=O)(=O)Nc2nnc(C)s2)cc1	0.3%	-0.4	0%	17	?	-0.4
O=C(Nc1ccccc1)Nc1ccccc1C(=O)NCC1CC1	-2.7%	-1.1	8%	-1	?	2.0
Cc1ccc(C(=O)CSc2nc(-c3ccccc3)nc3c2CCCC3)cc1	-1.0%	1.2	·	-4	·	·
Cc1scc(-c2n[nH]c(=S)n2C(C)c2ccccc2)c1C (centres undefined)	-1.1%	3.0	16%	5	-25%	6.7
CC(C)Cn1c(=O)c2sccc2n2c(CCCC(=O)NCCc3ccccc3)nnc12	-15%	0.1	·	-9	·	·
O=C(Cn1nc(-c2ccc(Cl)cc2)c2ccccc2c1=O)Nc1cccc(Br)c1	-2.6%	2.6	·	-6	·	·
Cc1ccc(CCNC(=O)c2ccc(CNS(=O)(=O)c3ccccc3)cc2)cc1	-2.0%	-0.8	·	-14	·	·
